Vif A3G = inhibitors of Vif binding to APOBEC3G peptide, primary screen, biochemical, TR-FRET, GST-Vif 1-94, biotin-A3G peptide, dose response retest (AID 1117319). inhibition, %, or IC50 in µM where a hit was titrated. 0.57% of 260,000 active. TR-FRET GST-Vif / biotin-A3G peptide binding; higher % means a stronger effect; test concentration not given here; strong numbers were not always called active;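 active = above the screen mean plus three standard deviations and confirmed in dose response; inconclusive = results disagree or hit not tested in dose response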;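 also: Vif residues 1-94 fused to GST binding biotinylated APOBEC3G peptide 110-148; 0% = full assay without inhibitor and 100% = GST in place of GST-Vif; retest series ran down from 100 µM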
Calb FLC = C. albicans growth modulation with fluconazole; C. albicans CaCi-2 (fluconazole-resistant clinical isolate) + fluconazole, Alamar Blue growth, 48 h; growth inhibition, % (test concentration not listed); 0.57% of 300,000 active; AID 1979;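 active = most replicates above 75%; inconclusive = exactly half above 75%; inactive = most below 75%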;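 also: all wells also contain fluconazole at 8 µg/ml as a sub-toxic cotreatment; 0% = median of DMSO wells and 100% = median of geldanamycin control wells; wells of about 8 µL received 7.5 nL stock; the first replicate is given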
Beta2AR agonist = human beta-2 adrenergic receptor agonism by FAP | response, % (no concentration beside the values) | 0.43% of 340,000 active | P07550 | Am2.2-beta2AR cells, FAP receptor internalization, flow cytometry; reference of the scale not given here | AID 504454;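 active = response above a set limit, near 3 SD of response in nonfluorescent compounds, cut at about 42% in these data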;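 also: stock transfer was 100 nL into about 11 µL; a reference agonist was the positive control; negative values mostly stem from fluorescent compounds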
Target sequence (P07550 whole entry, looked up): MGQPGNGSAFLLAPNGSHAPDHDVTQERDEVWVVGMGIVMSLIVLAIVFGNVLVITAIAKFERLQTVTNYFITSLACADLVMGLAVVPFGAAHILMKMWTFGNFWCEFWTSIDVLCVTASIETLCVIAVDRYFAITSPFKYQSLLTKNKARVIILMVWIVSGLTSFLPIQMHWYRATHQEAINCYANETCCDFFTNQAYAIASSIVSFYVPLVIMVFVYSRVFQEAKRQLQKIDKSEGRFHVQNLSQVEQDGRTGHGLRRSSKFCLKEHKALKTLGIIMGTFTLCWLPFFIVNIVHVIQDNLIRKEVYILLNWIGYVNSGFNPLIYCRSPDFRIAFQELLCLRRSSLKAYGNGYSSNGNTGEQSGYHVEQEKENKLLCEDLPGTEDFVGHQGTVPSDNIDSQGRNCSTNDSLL
ALR H2O2 inh = inhibitors of human sulfhydryl oxidase ALR; purified ALR, DTT oxidation, H2O2 HRP-luminol luminescence; P55789; inhibition, % (test concentration not listed); 3.8% of 290,000 active; AID 485317;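 active = mean and each replicate at 75% or more; inconclusive = only one of the two met; inactive = neither met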;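 also: stock transfer was 7.5 nL into about 7.5 µL; 0% = neutral wells and 100% = wells with inactivated enzyme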
Target sequence (P55789 whole entry, looked up): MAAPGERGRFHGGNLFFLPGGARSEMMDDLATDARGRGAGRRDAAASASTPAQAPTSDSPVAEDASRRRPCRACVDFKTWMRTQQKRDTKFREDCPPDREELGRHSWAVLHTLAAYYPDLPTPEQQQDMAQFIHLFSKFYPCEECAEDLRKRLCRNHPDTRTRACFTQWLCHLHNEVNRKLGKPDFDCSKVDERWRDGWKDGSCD
LANA-H2A inh = blocks KSHV LANA binding to histone H2A/H2B; cell-free LANA-H2A/H2B peptide, fluorescence polarization; inhibition, % (no concentration beside the values); 0.6% of 320,000 active; Q9QR71; in the data active = inhibition mostly above about 10%, no sharp cut-off; inactive = mostly below about 6.7%;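 also: stock transfer was 7.5 nL into about 10 µL; 0% = median of vehicle wells and 100% = median of positive control wells; one replicate is shown; the record names a cut of 25% in any replicate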
RanGTP-Impb inh = disruptors of Ran-importin-beta complex formation – biochemical, FRET, CFP-Ran, YFP-importin-beta, homogeneous, primary screen; 1.1% of 300,000 active; cell-free CFP-Ran/YFP-importin-beta FRET ratio; inhibition, % (no concentration beside the values);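 active = most replicates above 15%; inconclusive = exactly half above 15%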;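 also: 0% = DMSO wells and 100% = Ran loaded with GDP instead of GTP; wells of about 40 µL received 100 nL stock; the first replicate is given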
Active calls of the source: *; ? = inconclusive; . = not tested or not shown. Not all compounds are listed. The share of hits here may be higher or lower than overall.

Start of the data: the first 3 records, ahead of the listing:
SMILES	Vif A3G	Calb FLC	Beta2AR agonist	ALR H2O2 inh	LANA-H2A inh	RanGTP-Impb inh
COC(=O)[C@@]12OC[C@]34[C@H]([C@@H](O)[C@@H]1O)[C@@]1(C)C(=O)C(O[C@@H]5OC(CO)[C@@H](O)[C@@H](O)[C@@H]5O)=C[C@@H](C)[C@@H]1C[C@H]3OC(=O)[C@H](OC(=O)/C=C(\C)C(C)(C)OC(C)=O)[C@@H]24 (stereo partly specified)	.	.	.	.	0.1	.
CCCCOC(=O)NS(=O)(=O)c1sc(CC(C)C)cc1-c1ccc(Cn2c(CC)nc3c(C)cc(C)nc32)cc1	.	.	.	.	2.5	.
CNC[C@H]1Oc2ccc(NC(=O)Nc3ccc(OC)cc3)cc2C(=O)N([C@@H](C)CO)C[C@H]1C	.	.	.	.	0.6	.

This part in full, repeating the preview:
SMILES	Vif A3G	Calb FLC	Beta2AR agonist	ALR H2O2 inh	LANA-H2A inh	RanGTP-Impb inh
COC(=O)[C@@]12OC[C@]34[C@H]([C@@H](O)[C@@H]1O)[C@@]1(C)C(=O)C(O[C@@H]5OC(CO)[C@@H](O)[C@@H](O)[C@@H]5O)=C[C@@H](C)[C@@H]1C[C@H]3OC(=O)[C@H](OC(=O)/C=C(\C)C(C)(C)OC(C)=O)[C@@H]24 (stereo partly specified)	.	.	.	.	0.1	.
CCCCOC(=O)NS(=O)(=O)c1sc(CC(C)C)cc1-c1ccc(Cn2c(CC)nc3c(C)cc(C)nc32)cc1	.	.	.	.	2.5	.
CNC[C@H]1Oc2ccc(NC(=O)Nc3ccc(OC)cc3)cc2C(=O)N([C@@H](C)CO)C[C@H]1C	.	.	.	.	0.6	.
C=C(NC(=O)C(=C)NC(=O)c1csc(C2=NC3c4csc(n4)C4NC(=O)c5csc(n5)C([C@@](C)(O)C(C)O)NC(=O)C5CSC(=N5)/C(=C\C)NC(=O)C(C(C)O)NC(=O)c5csc(n5)[C@]3(CC2)NC(=O)C(C)NC(=O)C(=C)NC(=O)C(C)NC(=O)C(C(C)CC)NC2C=Cc3c(C(C)O)cc(nc3C2O)C(=O)OC4C)n1)C(N)=O (stereo partly specified)	.	.	.	.	0.7	.
O=C1OC2(c3ccccc31)c1cc(I)c(O)c(I)c1Oc1c2cc(I)c(O)c1I	.	.	.	.	-176.5	.
CCOC(=O)C1=C(C)N(CCCC(=O)O)C(=O)NC1c1ccc(C(F)(F)F)cc1 (stereo unspecified)	.	-8.8	.	.	.	-1.0
Cc1nc(-c2ccccc2)sc1C1(C)CC(c2cccnc2)=NO1 (stereo unspecified)	.	18.4	.	.	.	4.1
CCOC(=O)c1ccc(-n2c(CC)nc3ccccc3c2=O)cc1	.	2.6	.	.	.	-3.1
C#CCOCCOCCOCCNc1nc(N2CCN(C(=O)[C@H]([C@@H](C)CC)n3cc([C@@H](N)CO)nn3)CC2)nc(N2CCN(C(=O)[C@H]([C@@H](C)CC)n3cc([C@@H](N)CO)nn3)CC2)n1	.	-17.4	.	.	.	0.0
CCNC(=O)[C@@H]1CCCN1C(=O)[C@H](CCCN=C(N)N)NC(=O)[C@H](CC(C)C)NC(=O)[C@@H](CC(C)C)NC(=O)[C@H](Cc1ccc(O)cc1)NC(=O)[C@H](CO)NC(=O)[C@H](Cc1c[nH]c2ccccc12)NC(=O)[C@H](Cc1cnc[nH]1)NC(=O)[C@@H]1CCC(=O)N1	.	22.8	.	.	.	1.8
Cc1c(C(=O)O)sc(S(=O)(=O)N2CCNCC2)c1C(=O)O	.	4.5	.	.	.	-1.1
COc1ccc(NC(=O)CSc2nc3ccccc3c(=O)n2Cc2cccs2)c(OC)c1	.	1.9	.	.	.	-8.4
CC1(c2ccc([N+](=O)[O-])cc2)CC(C)(C)N(C(=O)c2ccccc2)c2ccccc21 (stereo unspecified)	.	-2.5	.	.	.	2.3
O=C(CSc1ccc(-c2cccs2)nn1)NCc1ccccc1Cl	.	4.8	.	.	.	-2.9
CC(=O)OC[C@]12CC[C@H]3[C@@](C)(CC[C@H]4C(C)(C)CCC[C@]34C)[C@@H]1C[C@H](C1=CC(=O)O[C@@H]1OC(C)=O)O2	.	.	.	3.1	.	.
C#CCOCCOCCOCCNc1nc(N2CCN(C(=O)CCCCCCCCCCNC(=O)[C@H]([C@@H](C)CC)n3cc(CCCCN=C(N)N)nn3)CC2)nc(N2CCN(C(=O)CCCCCCCCCCNC(=O)[C@H](CCCCN)n3cc(C[C@@H](C)CC)nn3)CC2)n1	.	.	.	-27.5	-8.1	.
Cc1ccc2c(=O)n3c(nc2c1)C(Cc1ccccc1)NC(=O)c1cc(Cl)ccc1-3 (stereo unspecified)	.	.	.	1.3	1.7	.
Cc1ccc2nc3n(c(=O)c2c1)-c1ccc(Cl)cc1C(=O)NC3CC(C)C (stereo unspecified)	.	.	.	-10.3	-3.4	.
Cc1ccc2nc3n(c(=O)c2c1)-c1cc(Cl)ccc1C(=O)NC3Cc1ccccc1 (stereo unspecified)	.	.	.	8.5	-4.7	.
Cc1ccc2c(c1)-n1c(nc3cc(Cl)ccc3c1=O)C(Cc1ccccc1)NC2=O (stereo unspecified)	.	.	.	-0.5	1.7	.
O=C(O)C1=CC(=C(c2ccc(O)c(C(=O)O)c2)c2ccc(O)c(C(=O)O)c2)C=CC1=O	.	.	.	97.4*	13.1	.
O=C1NC(Cc2ccc(O)cc2)c2nc3ccc(Cl)cc3c(=O)n2-c2ccc(Cl)cc21 (stereo unspecified)	.	.	.	1.1	0.1	.
COC(=O)CN1C(=O)[C@H]2[C@@H](/C=C/c3ccccc3)N3C(=O)CN(Cc4ccccn4)C(=O)[C@@]3(Cc3ccccc3)[C@H]2C1=O	.	.	.	1.1	6.6	.
C#CCOCCOCCOCCNc1nc(N2CCN(C(=O)CCCCCCCCCCNC(=O)[C@H](CCCN=C(N)N)n3cc(C[C@@H](C)CC)nn3)CC2)nc(N2CCN(C(=O)CCCCCCCCCCNC(=O)[C@@H]([C@H](C)CC)n3cc(CCCCCN)nn3)CC2)n1	.	.	.	-7.1	-3.6	.
O=C(Nc1ccc(Cl)cc1)c1nc[nH]c1C(=O)NCCCNC(=O)c1[nH]cnc1C(=O)Nc1ccc(Cl)cc1	.	.	.	-6.5	-0.2	.
O=C1NC(Cc2ccccc2)c2nc3ccc(Cl)cc3c(=O)n2-c2cc(Cl)ccc21 (stereo unspecified)	.	.	.	3.0	2.9	.
CS(=O)(=O)NCc1ccccc1Br	.	.	.	1.3	-5.9	.
O=C(NCc1ccc(F)cc1)c1cccc2c1C(=O)c1ccc(Cl)cc1S2(=O)=O	.	.	.	-0.3	-1.8	.
C#CCOCCOCCOCCNc1nc(N2CCN(C(=O)CCCCCCCCCCNC(=O)[C@@H](CCSC)n3cc(CCO)nn3)CC2)nc(N2CCN(C(=O)CCCCCCCCCCNC(=O)[C@H]([C@@H](C)CC)n3cc(CCCCCN)nn3)CC2)n1	.	.	.	-14.0	7.0	.
CC(C)CC1NC(=O)c2ccccc2-n2c1nc1ccc(F)cc1c2=O (stereo unspecified)	.	.	.	1.7	4.2	.
CN(C)C(=O)c1cccc(-c2csc(N3CCC(C(N)=O)CC3)n2)c1	.	.	.	4.3	3.2	.
C=C(C(=O)Oc1ccccc1C(C)(C)C)c1ccccc1	.	.	.	?	-0.3	.
COc1ccc2nc3n(c(=O)c2c1)-c1cc(Cl)ccc1C(=O)NC3Cc1ccccc1 (stereo unspecified)	.	.	.	-0.1	-1.1	.
C#CCOCCOCCOCCNc1nc(N2CCN(C(=O)CCCCCCCCCCNC(=O)[C@H]([C@@H](C)CC)n3cc(CCCCN=C(N)N)nn3)CC2)nc(N2CCN(C(=O)CCCCCCCCCCNC(=O)[C@H](CCCCN)n3cc(C)nn3)CC2)n1	.	.	.	-30.1	-85.0	.
CCN(CC)c1ccc2cc(-c3nc(-c4ccc(OC)cc4)cs3)c(=O)oc2c1	.	.	.	-3.6	8.5	.
CC(C)(C)OC(=O)CNC(=O)c1[nH]cnc1C(=O)N[C@@H](CCCCN)C(=O)OC(C)(C)C	.	.	.	2.5	1.7	.
O=C1NC(Cc2ccccc2)c2nc3cc(F)ccc3c(=O)n2-c2ccc(Cl)cc21 (stereo unspecified)	.	.	.	-4.8	-5.5	.
CC(C)CC1NC(=O)c2ccc(Cl)cc2-n2c1nc1ccc(Cl)cc1c2=O (stereo unspecified)	.	.	.	2.0	2.0	.
O=C1NC(Cc2ccccc2)c2nc3cc(Cl)ccc3c(=O)n2-c2ccccc21 (stereo unspecified)	.	.	.	2.6	-1.4	.
Cn1c(-c2ccc(F)cc2)cc2onc(-c3c(F)cccc3Cl)c2c1=O	.	.	.	3.2	0.6	.

Following part
Value order: Vif A3G	Calb FLC	Beta2AR agonist	ALR H2O2 inh	LANA-H2A inh	RanGTP-Impb inh
> CC(C)[C@]1(c2ccc(Cl)cc2)ON(c2ccccc2C(F)(F)F)C1=O
    .	.	.	-11.0	5.4	.
> Cc1ccc2c(=O)n3c(nc2c1)C(Cc1ccccc1)NC(=O)c1ccc(Cl)cc1-3 (stereo unspecified)
    .	.	.	6.6	-7.0	.
> C#CCOCCOCCOCCNc1nc(N2CCN(C(=O)CCCCCCCCCCNC(=O)[C@H]([C@@H](C)CC)n3cc(CCCCN=C(N)N)nn3)CC2)nc(N2CCN(C(=O)CCCCCCCCCCNC(=O)[C@H](CCCN=C(N)N)n3cc(C[C@@H](C)CC)nn3)CC2)n1
    .	.	.	-19.7	-76.0	.
> CC(C)CC1NC(=O)c2ccccc2-n2c1nc1ccccc1c2=O (stereo unspecified)
    .	.	.	-5.1	-2.1	.
> COc1cccc(CCN2C(=O)C(=O)N([C@@H](CNCc3ccccc3)Cc3ccccc3F)C[C@@H]2C(C)(C)C)c1
    .	.	.	-2.0	0.3	.
> CCC(=O)N1CCc2cc(S(=O)(=O)CCC(=O)Nc3c(C)n(C)n(-c4ccccc4)c3=O)ccc21
    .	.	.	54.0	1.9	.
> NC(=O)C1CCN(c2nc(-c3ccccc3Br)cs2)CC1
    .	.	.	2.1	-8.5	.
> CC(C)CC1NC(=O)c2cc(Cl)ccc2-n2c1nc1ccc(F)cc1c2=O (stereo unspecified)
    .	.	.	-1.0	5.5	.
> CCC(=O)Nc1nonc1-c1nc2ccccc2n1Cc1ccc(Cl)c(Cl)c1
    .	.	-17.7	.	.	.
> CN1C(=O)/C(=C2\SC(=S)N(CC3CCCO3)C2=O)c2ccccc21 (stereo unspecified)
    -1.3%	.	.	.	.	.
> CCCNC(=O)C(C)n1c2ccccc2c2nc(=O)cc(C)n21 (stereo unspecified)
    -4.0%	.	.	.	.	.
> CN(C(=O)COc1ccc(Cl)cc1)c1nnc(C23CC4CC(CC(C4)C2)C3)s1
    3.2%	.	.	.	.	.
> CCOC(=O)c1c(NC(=O)c2ccc(N3CCOCC3)c([N+](=O)[O-])c2)sc(C)c1C
    1.9%	.	.	.	.	.
> COc1ccc(CNC(=O)COC(=O)c2cc(-c3ccco3)nc3ccccc23)cc1
    ?	.	.	.	.	.
> CC(C)CN1CCN(C2CCN(C(C)C)CC2)C(CCO)C1 (stereo unspecified)
    14.4%	.	.	.	.	.
> O=C(c1cc2ccccn2n1)N1CCCC1
    -0.9%	.	.	.	.	.
> COCCCNc1ncnc2c1[nH]c1ccccc12
    -3.1%	.	.	.	.	.
> C/C(=C\C(=O)c1ccc(C)cc1)Nc1ccc(N2CCOCC2)cc1
    11.1%	.	.	.	.	.
> CC[C@H](C)[C@@H](NC(=O)O[C@@H]1C(=O)c2cc(Br)ccc2O[C@H]1c1ccc2c(c1)OCO2)C(=O)OC
    16.4%	.	.	.	.	.

Screening data as filed in PubChem.
